VDR inhibitor: blocks the human vitamin D receptor; AID 504847; VDR-SRC2-3 peptide fluorescence polarization, 2 h; P11473; 400,000 tested, 0.93% active; Potency, µM, without a hit: max response, negative = inhibition, hits mostly inhibitors; active means well fitted inhibition curve with a large enough effect; inconclusive means small, poorly fitted or top-dose-only effect, or another doubt; inactive means no such curve, though single readings can be large or run the other way; further: series mostly up to about 120 µM
Target sequence (P11473 whole entry, looked up): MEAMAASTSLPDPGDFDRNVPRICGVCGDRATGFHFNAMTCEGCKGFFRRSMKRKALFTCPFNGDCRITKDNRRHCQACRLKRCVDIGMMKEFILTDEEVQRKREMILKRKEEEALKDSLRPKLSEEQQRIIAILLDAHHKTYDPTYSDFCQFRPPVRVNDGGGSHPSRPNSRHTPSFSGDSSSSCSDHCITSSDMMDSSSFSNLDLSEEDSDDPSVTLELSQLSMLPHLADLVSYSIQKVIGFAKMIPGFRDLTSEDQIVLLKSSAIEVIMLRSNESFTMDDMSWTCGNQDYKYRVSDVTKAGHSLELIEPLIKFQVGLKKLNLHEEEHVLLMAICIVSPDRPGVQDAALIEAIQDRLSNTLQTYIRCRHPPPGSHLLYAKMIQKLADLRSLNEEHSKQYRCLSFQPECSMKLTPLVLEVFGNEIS
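Fluorescence polarization assay measuring small-molecule disruption of VDR binding to the coregulator peptide SRC2-3. Compounds were pin-transferred (23 nl) into the reagent mix and incubated 2 h at room temperature before reading.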
* marks the source's active call; other numbers are inactive results; ? = inconclusive; [ ] = dose if it differs, or a comment. On the % scale 0 is the no-effect control and ±100 the full control effect; potency means the concentration at half of the fitted maximal effect. A portion of the library, so the mix of outcomes need not match the whole.

canonical_smiles | VDR inhibitor
O=C(Cn1cc(C(F)(F)F)ccc1=O)Nc1cc(S(=O)(=O)N2CCOCC2)ccc1Cl | -4.1%
COc1ccc(S(=O)(=O)Nc2ncccn2)cc1 | 2.6%
Cc1ccc(S(=O)(=O)NC(C)C(=O)NC2CC2)cc1 (stereo unspecified) | -4.3%
COc1ccccc1-c1noc(CSc2nnc(-c3ccccc3)n2-c2ccc(C)c(C)c2)n1 | 5.4%
CC(C)c1nc(CNC(=O)CCc2nnc(-c3ccsc3)o2)cs1 | -8.7%
COc1cc([N+](=O)[O-])ccc1NC(=O)COC(=O)c1c[nH]c(=O)[nH]c1=O | -1.9%
COc1ccc2nc(NC(=O)c3ccccc3O)sc2c1 | 4.0%
CCC(C)[C@H](NC(=O)N1CCCCCC1)C(=O)O (stereo partly specified) | -1.3%
O=C1c2cccc3cc(Br)cc(c23)C(=O)N1Nc1ccccc1 | ?
Cc1ccc(C(C)(C)C)cc1S(=O)(=O)N1CC(=O)Nc2ccccc21 | 30.8%[activator]
CSc1nc(NCc2ccccc2)c2c3c(sc2n1)CN(C)CC3 | -3.5%
Cc1cccc(NS(=O)(=O)c2cccs2)n1 | -9.7%
Cc1ccc(C)c(C(=O)COC(=O)c2cc([N+](=O)[O-])ccc2NCCO)c1 | 9.3%
COCCOc1cc(Nc2nnc(C(F)(F)F)s2)c(Cl)cc1Cl | -12.2%
O=C(COC(=O)c1n[nH]c2ccccc12)NC(=O)NCc1ccco1 | -6.7%
CCCCOC(=O)Cn1c(=N)n(CCC)c2ccccc21 | -10.4%

An excerpt of these results, with values ahead of the structure.
VDR inhibitor,compound
30.8%[activator],Cc1ccc(C(C)(C)C)cc1S(=O)(=O)N1CC(=O)Nc2ccccc21
-3.5%,CSc1nc(NCc2ccccc2)c2c3c(sc2n1)CN(C)CC3
-9.7%,Cc1cccc(NS(=O)(=O)c2cccs2)n1
9.3%,Cc1ccc(C)c(C(=O)COC(=O)c2cc([N+](=O)[O-])ccc2NCCO)c1

More records follow:
canonical_smiles | VDR inhibitor
C#CC(C)(CC)NC(=O)c1cc(OC)c(OC)c(OC)c1 (stereo unspecified) | -2.7%
COc1ccccc1C(=O)Nc1nc(-c2ccc(S(=O)(=O)N3CCOCC3)cc2)cs1 | -14.2%
CSCCC(NC(=O)c1ccco1)C(=O)OCC(=O)N(Cc1ccccc1)C(C)(C)C (stereo unspecified) | 1.2%
O=C(C1CCN(S(=O)(=O)c2cnc[nH]2)CC1)N(CCc1ccccc1)Cc1ccccc1 | -9.7%
COc1ccc(C(CNC(=O)c2cc(S(=O)(=O)N3CCN(c4ccccc4)CC3)ccc2Cl)N(C)C)cc1 (stereo unspecified) | -13.1%
COc1ccc(NC(=O)c2csc(Cc3ccc(Cl)cc3)n2)cc1 | -14.4%
CCN(CC(=O)Nc1c(F)cccc1F)C(=O)CSc1ccc(F)cc1 | -15.2%
CCn1c(C)csc1=NC(=O)c1ccccc1O | 6.6%
CC(=O)Nc1ccc(NC(=O)c2cc3sccc3n2Cc2ccc(Cl)cc2)cc1 | -20.3%
CCOc1ccc(C(=O)NNC2CC(=O)N(CCc3ccccc3)C2=O)cc1OC (stereo unspecified) | -8.3%
COc1ccccc1C(O)(c1ccccc1)C(CN1CCOCC1)c1ccccc1 (stereo unspecified) | -6.0%
C[C@@H](NC(=O)c1nc[nH]c1C(=O)N[C@H](C)c1ccccc1)c1ccccc1 | -2.4%
Nc1nc(CSc2nc3ccccc3[nH]2)nc(N2CCOCC2)n1 | -7.3%
O=c1c(-c2cnn(-c3ccccc3)c2)coc2cc(O)ccc12 | 19.6%
COc1ccc(CNCCCO)cc1OC | 18.5%
Cc1nc(-c2ccccc2)sc1C1(C)CC(c2ccccc2F)=NO1 (stereo unspecified) | 4.9%
CCN(CC(=O)Nc1c(F)cccc1F)C(=O)c1cc(S(=O)(=O)N(CC)CC)ccc1N1CCCCC1 | 12.9%
CC(=O)Nc1ccc(S(=O)(=O)CCC#N)cc1 | -1.7%
CN1CCN(S(=O)(=O)c2ccc(Cl)s2)CC1 | 8.7%
CCc1ccc(NC(=O)N2CCN(c3ccccc3)CC2)cc1 | -6.0%
COc1cccc(CN(C)C(=O)c2ccc(S(=O)(=O)Nc3ccccc3F)cc2)c1OC | -16.5%
CCC(Sc1nc2nccnc2c(=O)n1Cc1ccc(Cl)cc1)C(=O)NC1CCCCC1 (stereo unspecified) | 10.2%
Cc1ccc2nc(NC(=O)C3CCN(S(=O)(=O)c4cccnc4)CC3)sc2c1 | -6.0%
Cc1ccc(Cn2ccc(NC(=O)c3cc(-c4ccco4)on3)n2)cc1 | -13.6%
CCn1c(SCC(=O)OC)nc2cc(S(=O)(=O)N3CCOCC3)ccc21 | 5.5%
O=C(NCCCN1CCOCC1)c1cc(-c2cccs2)on1 | 19.2%
CCN1CCN(Cc2nc3cc(NC(=O)c4ccccc4[N+](=O)[O-])ccc3n2CC)CC1 | 10.4%
CCOc1cc2[nH]c(=S)n(CCC(=O)N3CCc4ccccc4C3)c(=O)c2cc1OCC | 6.2%
Cc1cccc(-c2nc(C#N)c(N3CCCCC3)o2)c1 | -6.9%
COC(=O)N1CCC[C@@]2(CCN(C(=O)Nc3ccccc3)C2)C1 | 0.2%
COC(=O)c1ccc(COc2ccc(C#N)cc2)o1 | -10.6%
COC(=O)C1CCCCN1C(=O)c1ccc(OC2CCN(C(C)=O)CC2)c(OC)c1 (stereo unspecified) | -10.9%
COc1ccc(C(C)=O)cc1CSc1nc(Nc2ccc(F)c(F)c2)c2ccccc2n1 | -3.5%
Cc1cc(S(=O)(=O)N(Cc2ccc(C(C)C)cc2)CC2CCCO2)ccc1-n1cnnn1 (stereo unspecified) | 0.4%
Cn1c(=O)c2[nH]c(SCCN)nc2n(C)c1=S | 3.7%
Cc1ccc(O)c(NC(=O)c2cccc(NC(=O)c3ccco3)c2)c1 | 1.8%
CC(C)c1nnc2c(N(C)S(=O)(=O)c3ccccc3)nc3ccccc3n12 | 7.5%
CCc1ccc(NC(=O)C(=O)NCCc2csc(-c3cccc(F)c3)n2)cc1 | 17.8%
COC(=O)C(C(=O)OC)[C@@H]1O[C@@]23COC=C[C@]2(C)[C@H]3c2ccccc21 | -7.3%
Cc1cc(OC(C)C(=O)NCCCN2CCCC2=O)c2c(C)c(C)c(=O)oc2c1 (stereo unspecified) | 3.0%

The results go on:
SMILES	VDR inhibitor
COC(=O)[C@@]1(Cc2ccccc2)[C@H]2C(=O)N(Cc3ccccc3)C(=O)[C@H]2[C@H]2CN(C)C(=NCc3ccccc3)N21	-25.9%
CC1CCCCN1CCCNC(=O)C1CCCN(c2ncnc3c2nc2n3CCCCC2)C1 (stereo unspecified)	10.5%
CCN(CC)S(=O)(=O)c1cccc(C(=O)OCc2cc(=O)n3nc(C)sc3n2)c1	22.1%
O=C(COC(=O)c1cc(S(=O)(=O)N2CCCCC2)ccc1N1CCOCC1)NC1CCS(=O)(=O)C1 (stereo unspecified)	-12.4%
CCc1ccc(-c2nc(CCl)cs2)cc1	-17.8%
COc1ccc(Nc2nc(C)cc(-c3cc(-c4ccccc4)on3)n2)cc1	-7.6%
O=C(N/N=C/c1ccncc1)c1cccc(NC(=O)c2ccccc2Cl)c1	-13.1%
C/C(=N\Nc1ccc(C)c(Cl)c1)c1ccncc1	-19.5%

Some of these compounds in order of their number in VDR inhibitor, low to high.
SMILES	VDR inhibitor
C/C(=N\Nc1ccc(C)c(Cl)c1)c1ccncc1	-19.5%
CCc1ccc(-c2nc(CCl)cs2)cc1	-17.8%
COc1ccc(Nc2nc(C)cc(-c3cc(-c4ccccc4)on3)n2)cc1	-7.6%
CC1CCCCN1CCCNC(=O)C1CCCN(c2ncnc3c2nc2n3CCCCC2)C1 (stereo unspecified)	10.5%

(list continues)
SMILES	VDR inhibitor
COc1ccc(C(=O)NC(C)C2CC3CCC2C3)cc1 (stereo unspecified)	11.5%
O=C(CSc1ncn[nH]1)N1N=C2/C(=C/c3ccco3)CCCC2C1c1ccco1 (stereo unspecified)	4.4%
CCCSc1nc(C)cc(=O)[nH]1	22.7%
Nc1nnc(SCC(=O)OCC(=O)NC23CC4CC(CC(C4)C2)C3)s1	-24.6%
Cc1cc(OCC(=O)N(C)C)c2c(-c3ccccc3)cc(=O)oc2c1	-13.7%
Cn1c(COc2ccc(C(=O)O)cc2)nc2ccccc21	-26.2%
CCOc1ccc(S(=O)(=O)NCc2ccccn2)cc1NC(=O)c1ccccc1	12.0%
CCc1ccc(Nc2ccc(C(N)=O)cc2[N+](=O)[O-])cc1	9.7%
Cc1ccc(N2C(=O)CC(Sc3ccccc3C(=O)O)C2=O)c([N+](=O)[O-])c1 (stereo unspecified)	-9.3%
O=C(Nc1cccnc1)c1ccc(N2CCCC2)c([N+](=O)[O-])c1	19.5%
Cc1oc(-c2ccccc2Cl)nc1CN(C)C(C)c1ccon1 (stereo unspecified)	2.3%
COc1cc2c(C(=O)NCc3ccccn3)cn(CC(C)C)c(=O)c2cc1OC	-4.2%
COc1cc(/C=C2\SC(=S)N(NS(=O)(=O)c3ccccc3)C2=O)cc(OC)c1OC	?
CCN(CC(=O)NCc1cccs1)C(=O)CCc1c[nH]c2ccccc12	-20.5%
O=C(CC1C(=O)NCCN1Cc1cccc(F)c1)NC1CCC1 (stereo unspecified)	29.1%
CN(C)S(=O)(=O)c1ccc(NC(=O)/C=C/c2ccccc2Cl)cc1	-11.5%
O=C(c1cc2ccccc2o1)N1CCN(S(=O)(=O)c2c(F)cccc2F)CC1	1.5%
CC(=O)C1=C(C)Nc2ncnn2C1c1ccccc1Cl (stereo unspecified)	15.1%
N#Cc1ccccc1OCC(=O)Nc1cc(S(=O)(=O)N2CCCCC2)ccc1N1CCOCC1	-20.6%
C=CCNC(=S)N(Cc1ccccc1)Cc1ccccc1	-8.8%
C=C(C)[C@@H]1CC=C(CO)CC1	-8.7%
CN1CCC(=O)N([C@H](CSc2ccc(Br)cc2)c2ccccc2)CC1	-2.0%
COc1ccc2cc(S(=O)(=O)N3CCOCC3)ccc2c1	-4.2%
CC(=O)Nc1cccc(NC(=O)c2ccco2)c1	17.0%
Cc1ccc(-n2nc(C)c(C(=O)Nc3cccc(C(=O)NC4CC4)c3)n2)c(C)c1	0.1%
Clc1ccccc1Cc1noc(CN2CCCCC2CCc2ccccn2)n1 (stereo unspecified)	12.8%
COC(=O)N/N=C/c1cn(Cc2ccccc2Cl)c2ccccc12	-13.1%
CCOC(=O)c1nn(-c2ccc(F)cc2)c(=O)cc1OCC(=O)Nc1cccc(C)c1	-7.5%
CC(C(=O)O)n1nnc2ccccc21 (stereo unspecified)	6.7%
O=S(=O)(NCc1ccc2c(c1)OCO2)c1cccc(F)c1	-7.3%
COc1ccc(Nc2ncnc3c2c(-c2ccccc2)cn3-c2ccc(C)c(Cl)c2)cc1OC	-1.1%
COc1cc2cc(CN(Cc3cccs3)C(=S)Nc3ccccc3)c(=O)[nH]c2cc1OC	9.4%
Cc1cc(C(=O)N2CCc3ccccc3C2)on1	16.9%
CCCc1nc2ccccc2[nH]1	-5.7%
CCC(c1nnnn1Cc1ccco1)N(Cc1cc2cc(C)cc(C)c2[nH]c1=O)CC1CCCO1 (stereo unspecified)	-13.0%
O=S(=O)(NCCCCCNS(=O)(=O)c1c(F)cccc1F)c1ccc2c(c1)OCCO2	6.0%
CCN(CC)C(=O)Cn1c(=O)n(CCCCCC(=O)NCc2ccc3c(c2)OCO3)c(=O)c2sccc21	-9.1%
COc1ccc(OC)c(S(=O)(=O)NC2CCCCNC2=O)c1 (stereo unspecified)	-2.3%
Oc1ccc2c(c1)c1ccccc1c1ncccc21	4.3%
COc1ccc([N+](=O)[O-])cc1NC(=O)CSc1nccc(C)n1	2.0%
COc1cc(OC)cc(C(=O)N2CCN(C(=O)c3cccnc3)CC2)c1	-8.5%
O=C(CSc1nncc2ccccc12)Nc1ccccc1	1.1%
COC(=O)c1cccc(NC(=O)CCc2ccccc2)c1	4.4%
O=C(NCc1ccco1)c1cc(Cl)nc(Cl)c1	-4.8%
CC(C)CC(=O)NCC(c1ccc2c(c1)OCO2)N1CCN(c2ccccc2F)CC1 (stereo unspecified)	20.2%
COC(=O)C1CCN(C(=O)CC(NC(=O)C(F)(F)F)c2cccs2)CC1 (stereo unspecified)	4.7%
O=C(Cn1c(-c2cscn2)nc2ccccc21)Nc1cc(F)ccc1F	-8.8%
O=C(O)CSCC(=O)Nc1ccccc1SCCS(=O)(=O)c1ccc(Cl)cc1	-5.7%
Cc1cccn2c(NC(=O)c3cccs3)c(-c3ccccc3)nc12	-3.7%
Cc1cccc2c(=O)cc(CSc3ccccc3NC(=O)c3cccc(Br)c3)[nH]c12	18.5%
CCOc1cc(N2CCOCC2)c(OCC)cc1NC(=O)COC(=O)[C@H](Cc1c[nH]c2ccccc12)NC(C)=O	3.0%
CCCOc1ccc(CN(C(=O)c2cc(=O)c3ccc(C)cc3o2)C2CCS(=O)(=O)C2)cc1 (stereo unspecified)	-5.8%
COc1ccc2c(c1)-c1ccccc1S(=O)(=O)N2C	20.7%
COc1ccc(Cn2nnnc2C(c2cccs2)N2CCN(c3ccccc3)CC2)cc1 (stereo unspecified)	10.4%
COc1ccc(-c2cc(C(F)(F)F)nc(SCC(=O)NCc3cccs3)n2)cc1	-4.4%
COc1cc(S(=O)(=O)N2CCCCC2)ccc1NC(=O)/C=C/c1ccccc1	1.2%

Later entries:
SMILES	VDR inhibitor
COc1cc(-c2noc(CN3CCN(c4cccc(Cl)c4)CC3)n2)cc(OC)c1OC	-17.2%
O=S(=O)(c1ccc(F)cc1)N1CCN(c2nc(-c3ccc(F)cc3)cs2)CC1	-12.8%
CCC(=O)NCc1csc(-c2cccs2)n1	-0.9%
COc1ccccc1NC(=S)NNC(=O)c1cc(C)nn1C	-14.7%

Bioassay records (PubChem)
